PABP polyA inh – PABP poly(A) RNA binding inhibitors, primary screen, biochemical, fluorescence polarization, uHTS | AID 2014, 2009 | Polyadenylate-binding protein 1 (Homo sapiens), P11940 | inhibition, % at 35 µM | 1% of 290,000 active;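 active = 50% or more with normal probe brightness, or confirmed in later tests; about a fifth of its hits are not listed in these tables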;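 note: calls also rest on retests at 20 µM and on dose response follow-up; controls were probe without protein and protein plus probe with vehicle; some compounds called inactive have numbers as strong as hits; many hits fall short of the cut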
Target sequence (P11940 whole entry, looked up): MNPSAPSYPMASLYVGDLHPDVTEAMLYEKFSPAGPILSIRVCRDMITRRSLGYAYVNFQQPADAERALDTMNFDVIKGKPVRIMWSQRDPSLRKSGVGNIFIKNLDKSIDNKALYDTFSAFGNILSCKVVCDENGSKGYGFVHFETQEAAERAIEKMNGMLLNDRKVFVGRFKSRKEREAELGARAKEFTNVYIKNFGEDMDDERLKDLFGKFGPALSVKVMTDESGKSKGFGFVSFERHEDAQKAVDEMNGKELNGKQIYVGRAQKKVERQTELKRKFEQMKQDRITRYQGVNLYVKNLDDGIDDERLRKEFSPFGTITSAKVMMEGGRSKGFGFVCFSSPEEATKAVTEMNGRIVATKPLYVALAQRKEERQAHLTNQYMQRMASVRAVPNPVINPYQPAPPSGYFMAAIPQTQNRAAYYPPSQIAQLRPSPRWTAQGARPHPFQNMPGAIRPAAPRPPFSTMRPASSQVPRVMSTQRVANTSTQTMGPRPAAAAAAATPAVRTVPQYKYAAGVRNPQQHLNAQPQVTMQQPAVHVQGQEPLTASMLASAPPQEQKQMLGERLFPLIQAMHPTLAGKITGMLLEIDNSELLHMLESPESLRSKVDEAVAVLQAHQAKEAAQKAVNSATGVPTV
Yeast UUG start – modulators of yeast start codon fidelity, primary screen, whole organism, S. cerevisiae, single point, plate reader; S. cerevisiae UUG-firefly luciferase reporter, luminescence/redox ratio; activity score, % at 18.7 µM; 0.13% of 350,000 active; AID 602363, 2012;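 active = replicate mean at a twofold rise or more, about +100% in these data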;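 note: firefly luciferase made from a UUG start codon reports start codon fidelity; reporter light over untreated wells divided by growth signal over untreated wells; some hits fall short of that in this replicate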
HIV Env fusion – inhibitors of HIV-1 Env-driven cell-cell fusion, primary screen, HeLa-JRFL effector, CEM21 target cells, luciferase; inhibition, % at 12.3 µM; 1.1% of 360,000 active; AID 651610, 2012;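 active = mean replicate inhibition score of at least 50 and every replicate individually at or above 50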;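 note: 0% = plate neutral controls and 100% = maraviroc near 300 nM; one replicate is shown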
MT1-MMP act inh – blockers of MT1-MMP proenzyme processing, primary screen, HT1080 RFP-PRO-GFP cells, GFP/RFP fluorescence; 0.061% of 360,000 active; GFP/RFP ratio fluorescence, overnight; percent of plate control window, DMSO zero; Matrix metalloproteinase-14 (Homo sapiens), P50281; GFP/RFP ratio change, % at 20 µM;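 active = GFP/RFP ratio change of at least 30% with cell ATP level not reduced by more than half and red fluorescence within 50% of control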; note: strong numbers were not always called active
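Material – HT1080 RFP-PRO-GFP cells · Control set – DMSO wells and RFP-L50D-GFP cells · Incubation – overnight cell settling, then overnight compound exposure, 37 °C, 5% CO2 · Compound dosing – single-point 20 µM compound, 1% DMSO · Read-out – GFP/RFP fluorescence ratio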
eIF4H FP inh – human eIF4H binding inhibitors, primary screen, translation initiation inhibitor project, biochemical, uHTS, fluorescence polarization | inhibition, % at 35 µM | AID 2012, 2009 | eIF4H fluorescence polarization binding assay | 0.94% of 290,000 active;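 active = 50% or more with normal probe brightness, or confirmed in later tests; about a fifth of its hits are not listed in these tables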;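 note: calls also rest on retests at 20 µM and on dose response follow-up; 0% = protein and probe with vehicle and 100% = probe without protein; strong numbers were not always called active; many hits fall short of the cut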
Rce1 inh – yeast Rce1p protease inhibitors, primary screen, biochemical, fluorescence, cell-free homogeneous; CAAX prenyl protease 2 (Saccharomyces cerevisiae (strain ATCC 204508 / S288c)), Q03530; 0.27% of 290,000 active; yeast membranes, quenched prenylated peptide cleavage fluorescence; AID 2563, 2010; calls only;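 active = fall in fluorescence gain of 50% or more versus controls, with final raw signal at or below 3038400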;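 note: plate controls were neutral control wells for no effect and wells lacking membranes for full effect; tested at 10 µM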
Target sequence (Q03530 whole entry, looked up): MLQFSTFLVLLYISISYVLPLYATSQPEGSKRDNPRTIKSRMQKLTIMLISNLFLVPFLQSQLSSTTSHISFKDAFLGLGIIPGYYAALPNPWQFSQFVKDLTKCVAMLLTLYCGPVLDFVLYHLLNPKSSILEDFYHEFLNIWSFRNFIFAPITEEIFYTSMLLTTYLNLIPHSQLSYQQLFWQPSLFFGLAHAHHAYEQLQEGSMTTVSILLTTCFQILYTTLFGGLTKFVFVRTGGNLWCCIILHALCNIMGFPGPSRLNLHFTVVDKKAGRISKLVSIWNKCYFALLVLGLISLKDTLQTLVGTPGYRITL
CSC inhib – cancer stem cell viability inhibitors, primary screen, luminescence | 1.1% of 300,000 active | inhibition, % at 7.5 µM | cancer stem cell-like cells viability;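 active = mean at 75% or more and at least half the replicates too; tested in HMLE shEcad cells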;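 note: 0% = median of negative and 100% = median of positive control wells; the first replicate is given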
MT1-MMP act inh RFP – recorded beside MT1-MMP act inh, whose call it bears; RFP signal change, %; measured here: RFP expression control read;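 0 = vehicle wells; hits needed this value within 50% of zero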
* marks the source's active call; other numbers are inactive results; i = inactive; / = not tested or not shown; & = joins results of further samples; [ ] = dose if it differs, or a comment. A portion of the library (hit frequency here may not be typical).

SMILES	PABP polyA inh	Yeast UUG start	HIV Env fusion	MT1-MMP act inh	MT1-MMP act inh RFP	eIF4H FP inh	Rce1 inh	CSC inhib
Cn1c(CCN2CCN(c3ccccn3)CC2)nc2cc(NS(=O)(=O)c3ccccc3)ccc21	7	-5	7	0	-13	-6	i	7
O=[N+]([O-])c1ccc2c(c1)C(N1CCN(CCO)CC1)Cc1ccc(F)cc1S2 (centres undefined)	/	-2	13	-1	-5	/	/	/
CCOC(=O)c1cc(NC(=O)N2CCCc3ccccc32)c(C)nc1C	6	-6	/	4	4	0	i	/
CS(=O)(=O)c1ccc(Cl)c(NC(=O)CN2C(=O)C3CCCCC3C2=O)c1 (centres undefined)	/	-3	-30	0	3	/	i	/
O=[N+]([O-])c1cc(S(=O)(=O)N2CCCCC2)ccc1NCCN1CCOCC1	-10	/	1	5	1	-8	i	-11
CCOC(=O)CNC(=O)/C(=C\c1ccc(F)cc1)NC(=O)c1ccccc1	4	/	-13	-4	1	-7	i	10
CN(C)C(=O)c1cccc(-c2cnc3c(NC=O)cc(-c4ccc(N(C)C)cc4)cn23)c1	/	-25	4	-57	5	/	/	/
CC(=O)c1ccc(-c2cnc3c(NC=O)cc(-c4ccccc4Oc4ccccc4)cn23)cc1	/	-9	56*	-6	-14	/	/	/
O=C1CSC(c2cccc(Cl)c2Cl)N1c1ccccn1 (centres undefined)	-10	/	-25	4	5	-6	i	7
O=C(C[C@@H]1C/C=C\CC[C@@H](Cc2ccc(F)cc2)C(=O)OC[C@@H]2CCCN2C1=O)N[C@H](CO)Cc1ccccc1	/	23	-38	-1	-4	/	/	/

Quoted at random: 7 records from the list
SMILES	PABP polyA inh	Yeast UUG start	HIV Env fusion	MT1-MMP act inh	MT1-MMP act inh RFP	eIF4H FP inh	Rce1 inh	CSC inhib
Cn1c(CCN2CCN(c3ccccn3)CC2)nc2cc(NS(=O)(=O)c3ccccc3)ccc21	7	-5	7	0	-13	-6	i	7
CS(=O)(=O)c1ccc(Cl)c(NC(=O)CN2C(=O)C3CCCCC3C2=O)c1 (centres undefined)	/	-3	-30	0	3	/	i	/
CC(=O)c1ccc(-c2cnc3c(NC=O)cc(-c4ccccc4Oc4ccccc4)cn23)cc1	/	-9	56*	-6	-14	/	/	/
O=C1CSC(c2cccc(Cl)c2Cl)N1c1ccccn1 (centres undefined)	-10	/	-25	4	5	-6	i	7
O=C(C[C@@H]1C/C=C\CC[C@@H](Cc2ccc(F)cc2)C(=O)OC[C@@H]2CCCN2C1=O)N[C@H](CO)Cc1ccccc1	/	23	-38	-1	-4	/	/	/
CCOC(=O)c1cc(NC(=O)N2CCCc3ccccc32)c(C)nc1C	6	-6	/	4	4	0	i	/
CCOC(=O)CNC(=O)/C(=C\c1ccc(F)cc1)NC(=O)c1ccccc1	4	/	-13	-4	1	-7	i	10

Further structures follow.
SMILES	PABP polyA inh	Yeast UUG start	HIV Env fusion	MT1-MMP act inh	MT1-MMP act inh RFP	eIF4H FP inh	Rce1 inh	CSC inhib
COc1ccccc1C(=O)NNC(=S)NC(=O)c1cccs1	3	-13	12	7	2	11	i	3
CC[N+]1(CC)CC2=Cc3c(ccc4ccccc34)C(C)C2C1 (centres undefined)	-4	-2	-4	3	-5	4	i	-14
O=C(Cc1ccc(F)cc1)NC1CCS(=O)(=O)C1 (centres undefined)	/	-13	-4	-4	3	/	i	0
CC(O)C(NS(=O)(=O)c1ccc(Cl)cc1)C(=O)OCC(=O)c1ccc2c(c1)NC(=O)CO2 (centres undefined)	/	-8	3	3	-6	/	/	/
O=C(NC1CCCC1)C(c1ccc(F)cc1)N(Cc1ccc(F)cc1)C(=O)c1ccn[nH]1 (centres undefined)	-4	-13	9	0	-1	-10	i	-10
CCOC(=O)c1sc(NC(=S)NC(=O)C2CCCC2)cc1C	-1	/	/	1	-3	-2	i	15
N#Cc1cc([N+](=O)[O-])ccc1NCCc1ccccn1	-4	/	-6	1	2	0	i	0
Cc1ccc(OCC(=O)NC(C)c2ccc(Cl)c(Cl)c2)c([N+](=O)[O-])n1 (centres undefined)	-2	-11	20	0	-6	2	i	13
CSc1ccccc1NC(=O)CN(C)Cc1cc(=O)n2ccsc2n1	4	/	6	-4	-2	-10	i	7
Cc1cc(NC(=O)c2ccccc2[N+](=O)[O-])ccc1Br	15	/	-11	3	-5	-7	i	-14
CCOc1ccc(CN(C)C(=O)c2ccc(NC(=O)CC3SC(N4CCCC4)=NC3=O)cc2)cc1 (centres undefined)	2	12	-73	3	-4	-11	i	-10
COc1ccc([C@H]2C[C@H](O)[C@@H](n3cc(-c4ccc(F)cc4)nn3)CN2CC2CCCCC2)cc1	/	-7	8	5	0	/	/	/
COc1cc(OC)cc(C(=O)Nn2c(C)nc3ccccc3c2=O)c1	-4	-16	/	1	1	-6	i	5
Cc1nnc(SCc2ccc(F)cc2Cl)s1	6	-2	-29	-3	0	10	i	-4
Cc1cccnc1NCC(O)COc1ccccc1 (centres undefined)	-8	-12	-28	-7	0	2	i	0
CCc1ccc(CN(Cc2cccnc2)C(=O)/C=C/c2ccc(OC)cc2)cc1	-17	-12	0	-1	-5	-27	i	1
CCOC(=O)C1C(=O)NC(N2CCCCC2)=NC1c1ccco1 (centres undefined)	-3	-9	/	/	/	1	i	-2
CC(C)Sc1nnc(NC(=O)c2ccco2)s1	-6	-17	0	1	6	-10	i	-3
CCn1cc(CN(C)S(=O)(=O)c2cccc([N+](=O)[O-])c2)cn1	5	/	5	1	2	-8	i	-15
COc1ccc(C=O)cc1CN1CCCN(Cc2ccc(Cl)cc2)S1(=O)=O	-3	8	-5	3	-6	2	i	-5
C[C@@H](CO)NC(=O)[C@H]1O[C@@H](n2ccc(=O)[nH]c2=O)[C@H](O)[C@@H]1O	/	-6	-21	2	5	/	/	/
COc1ccc(-c2csc3nc(C)nc(N4CCN(c5ccc(C(C)=O)cc5)CC4)c23)cc1OC	0	16	-1	-6	-1	-8	i	3
COc1ccccc1NC(=O)CCc1nc(-c2ccccc2F)no1	-6	-8	-5	3	2	-12	i	-1
COc1ccc(-c2nc3nc(C)cc(C)n3n2)cc1	-2	-16	-38	-7	1	-8	i	4
O=C(CSc1nnc(-c2cccnc2)o1)Nc1ccccc1Br	-3	-8	1	-1	1	-9	i	-9
N#CC1=C(Nc2ccc(Br)cc2)CCC1	-11	-14	-85	-1	6	6	i	-5
COCCCNC(=O)CC(NS(=O)(=O)c1ccc(C)cc1)c1ccc(OC)cc1 (centres undefined)	-4	-7	/	2	5	2	i	9
CCN(CC)C(=O)C1CC(c2ccc(OC)cc2)=NO1 (centres undefined)	-3	-9	-33	0	8	-1	i	-6
Cc1cc(=O)n2[nH]c(NCc3ccccc3F)nc2n1	-7	-16	-2	8	4	-10	i	/
CCOC(=O)c1c(CSc2ccccc2)oc2ccc(O)cc12	9	/	-13	0	-7	5	/	23
COc1cccc2c1C(=O)C[C@]1(CCCC[C@@H]1C)O2	/	-14	-9	5	2	/	i	-11
O=C(OCC(=O)N1c2ccccc2Sc2ccccc21)C1CC(=O)N(Cc2ccco2)C1 (centres undefined)	-6	17	22	-1	-2	4	i	6
O=C(Cc1cccs1)N/N=C\c1ccc(O)cc1	0	-19	-1	4	5	8	i	-3
C=CCNC(=S)N/N=C/c1ccc(-c2ccc(OC)cc2)o1	7	/	-22	-9	-16	6	i	10
CC(C)COC(=O)NCCOC(=O)Nc1cccc(Cl)c1	-1	-1	-21	0	-4	2	i	-4
COc1ccc(CCNc2ccc(S(=O)(=O)N3CCCC3)cc2[N+](=O)[O-])cc1	-8	-17	25	0	-8	-15	i	17
O=C(NCc1nc2ccccc2[nH]1)C1=C[C@H](c2ccc3c(c2)OCO3)C[C@H](OCc2ccc(CO)cc2)O1	3	10&-19	-2[16.7 µM]	1	-1	4	i	-1
COC(=O)Cc1c(CSc2ccccc2)oc2ccc(O)c(CN(C)C)c12	0	3	27	5	1	-4	i	-7
CCOc1ccc(-n2ccnc(SCC(=O)Nc3ccc(OC)cc3OC)c2=O)cc1	/	/	-12	-5	-15	/	i	10
COc1cc(OC)c(NC(=O)c2csc(C)c2)cc1Cl	0	0	29	-2	4	-9	i	-7

Printed as active in HIV Env fusion, of those listed so far:
SMILES | Yeast UUG start | HIV Env fusion | MT1-MMP act inh | MT1-MMP act inh RFP | Rce1 inh
CC(=O)c1ccc(-c2cnc3c(NC=O)cc(-c4ccccc4Oc4ccccc4)cn23)cc1 | -9 | 56* | -6 | -14 | /

New compounds follow:
SMILES	PABP polyA inh	Yeast UUG start	HIV Env fusion	MT1-MMP act inh	MT1-MMP act inh RFP	eIF4H FP inh	Rce1 inh	CSC inhib
CCOC(=O)N1CCN(S(=O)(=O)c2ccc(OCC(=O)OC)c(Cl)c2)CC1	2	-8	/	2	6	0	i	3
Cc1ccc(NC(=O)N2CCCN(C(=O)OC(C)(C)C)CC2)cc1Cl	-4	-8	10	4	-1	14	i	-8
COc1ccccc1N(CC(=O)N/N=C/c1ccc(OCC(=O)NCc2ccco2)cc1)S(=O)(=O)c1ccc(C)cc1	-8	-7	/	-15	-4	-4	i	1
CC(C)c1ccc(C2c3[nH]c4ccccc4c3C[C@H]3C(=O)N(c4ccccc4C(=O)N4CCC[C@@H]4C(=O)O)C(=O)N23)cc1 (some centres undefined)	-3	-7	/	-3	-1	10	i	-9
CC(C)c1nc2cc(C(=O)N3CCN(c4cnccn4)CC3)ccc2o1	2	-12	-1	-4	3	6	/	-1
Cn1c(SCC(=O)NCc2ccccc2)ncc(C(=O)Nc2ccccc2)c1=O	/	-12	10	-4	-4	/	i	10
COc1ccc(CN(C(=O)/C=C/C(=O)c2ccc(OC)cc2O)C(C(=O)NC2CCCCC2)c2ccncc2)cc1 (centres undefined)	3	-4	/	-6	-11	11	i	-1
Cc1cc(C)n(C(=O)CN2C(=O)CCC2=O)n1	-5	-13	/	-4	3	-9	i	-6
CCN(CC(=O)Nc1ccccc1C(F)(F)F)C(=O)C1=COCCO1	/	/	-17	-1	6	/	i	-11
CCCc1c(C)[nH]c2ccccc2c1=O	-2	-30	/	2	2	-7	i	-12
Cc1cc(CNC(=O)C2CCC(=O)N(Cc3ccccc3F)C2)nn1C (centres undefined)	18	-16	-10	-1	3	-2	i	-4
COc1ccc(N2CCN(c3ccc(C(=O)O)cc3[N+](=O)[O-])CC2)cc1	-10	-17	4	-3	2	0	i	-4

Some of these compounds in order of their number in Yeast UUG start, lowest first.
| mol | Yeast UUG start | HIV Env fusion | MT1-MMP act inh | MT1-MMP act inh RFP | Rce1 inh |
| --- | --- | --- | --- | --- | --- |
| CC(C)c1nc2cc(C(=O)N3CCN(c4cnccn4)CC3)ccc2o1 | -12 | -1 | -4 | 3 | / |
| Cc1ccc(NC(=O)N2CCCN(C(=O)OC(C)(C)C)CC2)cc1Cl | -8 | 10 | 4 | -1 | i |
| CC(C)c1ccc(C2c3[nH]c4ccccc4c3C[C@H]3C(=O)N(c4ccccc4C(=O)N4CCC[C@@H]4C(=O)O)C(=O)N23)cc1 (some centres undefined) | -7 | / | -3 | -1 | i |

Screens (PubChem BioAssay)
